VDR inhibitor: blocks the human vitamin D receptor; 0.93% of 400,000 active; Potency, µM, for inactives: max response, negative = inhibition, most hits filed as inhibitors; VDR-SRC2-3 peptide fluorescence polarization, 2 h; active means well fitted inhibition curve with a large enough effect; inconclusive means small, poorly fitted or top-dose-only effect, or another doubt; inactive means no such curve, though single readings can be large or run the other way; further: series mostly up to about 120 µM
Target sequence (P11473 whole entry, looked up): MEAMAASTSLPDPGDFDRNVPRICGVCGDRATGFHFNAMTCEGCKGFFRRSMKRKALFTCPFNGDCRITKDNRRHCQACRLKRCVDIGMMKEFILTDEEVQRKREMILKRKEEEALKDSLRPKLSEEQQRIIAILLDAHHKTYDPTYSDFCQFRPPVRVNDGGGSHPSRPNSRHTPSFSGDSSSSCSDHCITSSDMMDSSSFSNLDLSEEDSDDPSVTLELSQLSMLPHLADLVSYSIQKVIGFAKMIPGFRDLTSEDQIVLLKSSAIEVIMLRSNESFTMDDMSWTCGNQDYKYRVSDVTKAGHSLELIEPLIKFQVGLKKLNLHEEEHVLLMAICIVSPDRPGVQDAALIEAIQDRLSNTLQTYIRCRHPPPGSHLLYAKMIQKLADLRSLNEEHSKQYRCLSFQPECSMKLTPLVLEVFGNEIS
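The screen uses fluorescence polarization to detect compounds that interfere with recruitment of the SRC2-3 coactivator peptide to VDR; plates are read after 2 h at room temperature.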
The depositor's hits bear a star; ? = inconclusive; & = joins results of further samples; [ ] = another dose, or the depositor's remark. On the % scale 0 is the no-effect control and ±100 the full control effect; potency means the concentration at half of the fitted maximal effect. Only part of the results is shown (hit frequency here may not be typical).

SMILES | VDR inhibitor
Cc1ccc(CS(=O)(=O)Cc2ccc(C(=O)NCc3ccco3)o2)cc1 | -6%
CS(=O)(=O)c1sc(C(=O)NC(=S)Nc2ccc(OC(F)(F)F)cc2)c2c1C=CCC2 | -16%
COc1cccc(-c2nnc(SCC(=O)N(C(C)C)C(C)C)o2)c1 | 0%
CC(=O)c1ccc(OCC(=O)OC(C)C(=O)NC2CCCCC2)cc1 (configuration not stated) | -4%
CC(C)CCOCC(=O)Nc1cccc(C(=O)O)c1 | 9%
COc1ccc2c(c1)c(=O)c(C(=O)c1ccc(F)cc1)cn2CC(=O)Nc1ccc2c(c1)OCCO2 | 0%
O=C(NCC(=O)N(c1ccc(Cl)cc1)C(C(=O)NC1CCCC1)c1ccncc1)c1ccco1 (configuration not stated) | 11%
OCCCNc1nc(-c2ccc(Cl)cc2)nnc1-c1ccc(Br)cc1 | -16%
COc1ccc(C2C=C(c3ccccc3)Nc3nc(CCCO)nn32)cc1 (configuration not stated) | -2%
N#Cc1cnn2ccc(-c3cc(N4CCOCC4)ccc3[N+](=O)[O-])nc12 | -3%
COc1cccc(NC(=O)C2C3CC4OC(=O)C2C4C3)c1 (configuration not stated) | -10%
CCc1cccc2c1NC(=O)C2=O | -27%
Cc1ccc2nc(-c3ccc(NC(=O)COC(=O)c4ccc(Br)o4)cc3)sc2c1 | 9%
CC(C)(C)NC(=O)c1ccc2nc(CCc3ccccc3)oc2c1 | 1%
O=C(COC(=O)c1cccc(S(=O)(=O)N2CCOCC2)c1)NCc1ccccc1 | 0%
O=C(O)c1cc(O)c2c(c1)[C@@H]([C@H]1c3cc(C(=O)O)cc(O)c3C(=O)c3c(O[C@@H]4O[C@H](CO)[C@@H](O)[C@H](O)[C@H]4O)cccc31)c1cccc(O[C@@H]3O[C@H](CO)[C@@H](O)[C@H](O)[C@H]3O)c1C2=O | -20%
COc1ccccc1OCC(=O)NCC(c1ccc(Cl)cc1)N1CCCCC1 (configuration not stated) | 2%
COc1ccc(N2CC(C(=O)N3CCC(c4nc5ccccc5[nH]4)CC3)CC2=O)cc1 (configuration not stated) | -13%
CC(=O)N1CC(C)Oc2ccc(S(=O)(=O)NC(CC(=O)O)c3ccccc3C)cc21 (configuration not stated) | -19%
CCC(CC)N1CCN(C(=O)c2cc(OC)c(OC)c(OC)c2)CC1 | -3%

Random excerpt: 5 records from the list, in no set order.
SMILES | VDR inhibitor
OCCCNc1nc(-c2ccc(Cl)cc2)nnc1-c1ccc(Br)cc1 | -16%
O=C(NCC(=O)N(c1ccc(Cl)cc1)C(C(=O)NC1CCCC1)c1ccncc1)c1ccco1 (configuration not stated) | 11%
CC(C)CCOCC(=O)Nc1cccc(C(=O)O)c1 | 9%
N#Cc1cnn2ccc(-c3cc(N4CCOCC4)ccc3[N+](=O)[O-])nc12 | -3%
CS(=O)(=O)c1sc(C(=O)NC(=S)Nc2ccc(OC(F)(F)F)cc2)c2c1C=CCC2 | -16%

Later entries:
SMILES | VDR inhibitor
O=C(CCS(=O)(=O)Cc1ccccc1)NCc1ccco1 | -15%
C=CCOC(=O)C1=C(C)NC(SCC(=O)NC(=O)OCC)=C(C#N)C1c1cccnc1 (configuration not stated) | -7%&-4%
Cc1ccc(-n2cc(CNCCN3CCOC3=O)c(-c3cccc(C)c3)n2)cc1 | -14%
O=C(CSc1nc(C2CC2)nc2ccccc12)N1CCCCC1 | 8%
CCOc1ccc(N2CC(C)Cn3c2nc2c3c(=O)n(CC(=O)O)c(=O)n2C)cc1 (configuration not stated) | 4%
O=C(CSc1ccc(F)cc1)Nc1ccccc1Br | 1%
O=C(CN1CCN(C(=O)c2ccco2)CC1)Nc1ccccc1 | -2%
COc1cccc(NC(=O)C2CC(=O)N=C(N)S2)c1 (configuration not stated) | -15%
O=C(Cc1ccc(F)cc1)NCCS(=O)(=O)N1CCN(c2cccc(Cl)c2)CC1 | -11%
CCn1c(COc2ccccc2OC)nnc1SCC(=O)NC1CCCC1 | 1%
COCCNc1nc(-c2ccccc2C(F)(F)F)nc2ccccc12 | -1%
CN(CCCNC(=O)CSc1cc(=O)n(C)c2cc(Cl)ccc12)Cc1ccccc1 | 3%
CCN(CCO)Cc1cc(=O)oc2cc3c(cc12)CCC3 | -10%
O=C(CSc1cccc[n+]1[O-])NC1CCCCCCC1 | -8%
CCCCCCCCC(=O)NCCOc1ccc(OC)cc1 | -2%
Cc1ccccc1C1CCCN(Cc2nc(C3CC3)no2)C1 (configuration not stated) | 15%
NC(=O)COC(=O)CSc1ccc2ccccc2c1 | 8%
O=C(CCl)Oc1ccc2occ(C(=O)c3cccs3)c2c1 | ?
CSc1nnc2ccc(-c3ccc(C)cc3)nn12 | 15%
CCOC(=O)c1ccccc1NC(=O)c1nn(-c2ccc(C)cc2)c(=O)n(C)c1=O | 9%
Cn1c(=O)oc2cc(S(=O)(=O)N3CCN(c4cccc(Cl)c4)CC3)ccc21 | -10%
COc1cc(OC)c(NC(=O)C2CCCO2)cc1Cl (configuration not stated) | -27%
O=C(CNC(=O)c1ccco1)OC(C(=O)c1ccccc1)c1ccccc1 (configuration not stated) | 14%
CC(c1ccccc1)n1c(N2CCNCC2)nc2c1c(=O)[nH]c(=O)n2C (configuration not stated) | 0%
COc1cc(C(=O)OCC(C)=O)c([N+](=O)[O-])cc1OC | -5%
COc1ccc(-c2cc(=Nc3ccc(C)cc3)c3ccccc3o2)cc1 | -17%
Nc1c(C(=O)N/N=C/c2cccnc2)cnn1-c1ccccc1 | 11%
O=S1(=O)N=C(N2CCc3ccccc3C2)c2ccccc21 | 2%
Fc1ccc(/C=N/NC(=S)Nc2ccc(Cl)cc2Cl)cc1 | 5%
O=c1nc2n(c3ccc([N+](=O)[O-])cc13)CCCCC2 | -3%
Cc1ccc(SCCN)cc1C | -2%
CCCCC(=O)NCc1ccc(F)cc1 | 3.2µM*
CCCOc1ccc(Cn2c(O)cc(=O)[nH]c2=O)cc1 | ?
CC1OC(Nc2ccc(N=Nc3ccccc3)cc2)C(O)C(O)C1O (configuration not stated) | 10%
O=C1CC(c2ccccc2)Cc2nc3nc(C(F)(F)F)nn3cc21 (configuration not stated) | 9%
CC(=O)Nc1ccc(S(=O)(=O)N(C)c2nc3ccccc3nc2Cl)cc1 | ?
CCc1ccc(Nc2cc(C)nc3nc(C)nn23)cc1 | -18%
COc1cc(C2NC(=S)NC(O)(C(F)(F)F)C2C(=O)c2cccs2)cc(OC)c1O (configuration not stated) | -1%
O=C(Oc1cccc(N2C(=O)CCC2=O)c1)C1CC(=O)N(c2ccc(Br)cc2)C1 (configuration not stated) | -18%
CCOC(=O)C1=C(C)C(c2ccccc2O)NC(=O)N1 (configuration not stated) | -3%

Quoted from the entries so far (six entries):
SMILES | VDR inhibitor
O=C1CC(c2ccccc2)Cc2nc3nc(C(F)(F)F)nn3cc21 (configuration not stated) | 9%
CC(=O)Nc1ccc(S(=O)(=O)N(C)c2nc3ccccc3nc2Cl)cc1 | ?
CCc1ccc(Nc2cc(C)nc3nc(C)nn23)cc1 | -18%
COc1cc(C2NC(=S)NC(O)(C(F)(F)F)C2C(=O)c2cccs2)cc(OC)c1O (configuration not stated) | -1%
O=C(Oc1cccc(N2C(=O)CCC2=O)c1)C1CC(=O)N(c2ccc(Br)cc2)C1 (configuration not stated) | -18%
CCOC(=O)C1=C(C)C(c2ccccc2O)NC(=O)N1 (configuration not stated) | -3%

Later entries.
SMILES | VDR inhibitor
CC(C)c1ccc(NC(=O)C(C)N(c2ccccc2)S(C)(=O)=O)cc1 (configuration not stated) | 5%
O=c1c(-c2ccc(F)cc2)nc2cnc(Nc3ccccc3)nc2n1C[C@H]1CCCO1 | 1%
COc1ccc(N(CC(=O)NCC(C)C)S(=O)(=O)c2ccccc2)cc1 | ?
O=C1N[C@@H](Cc2c[nH]c3ccccc23)C(=O)N[C@H]1Cc1c[nH]c2ccccc12 | -3%
COc1ccc(C(CC(=O)N2CCCC2)c2ccc(F)cc2)cc1 (configuration not stated) | -4%
COc1ccc(NC(=O)COC(C)=O)cc1Cl | -6%
Cc1cccc(N2CCN(C(=O)c3ccc(NC4=NC5CS(=O)(=O)CC5S4)cc3)CC2C)c1 (configuration not stated) | -29%
CCOc1cc(C(=O)OCc2ccc([N+](=O)[O-])cc2)ccc1OCC(=O)N1CCOCC1 | -16%
COc1ccc(CNC(=S)NCc2ccc(Cl)cc2)cc1OC | 13%
Cc1ccc(C(=O)/C=C/c2ccc(F)cc2)o1 | ?
CCOc1ccccc1N1C(=O)CN(Cc2ccc(OC)c(OC)c2)C1=S | -17%
CSc1ccccc1OCc1cc(C(=O)N(C)Cc2nonc2C)no1 | -4%
CCCCn1cc([N+](=O)[O-])nc1C | -3%
CC(=O)c1c(C)[nH]c(C(=O)OCc2cc(-c3ccco3)on2)c1C | -11%
COc1cccc(N(CC(=O)N2CCC(C)CC2)S(=O)(=O)c2ccc(C)cc2)c1 | 12%
CC/C=C\C/C=C\C/C=C\C/C=C\C/C=C\CCCCCC(=O)O | ?
O=C(Nc1nnc(-c2ccncc2)s1)Nc1ccccc1F | 9%
Cc1ccc2nc(-c3ccc(NC(=S)NC(=O)C(C)C)cc3)sc2c1 | -6%
CCn1c(=O)c(=O)n(CC)c2cc(S(=O)(=O)Nc3cc(C)ccc3C)ccc21 | -7%
COc1ccc(OC)c(S(=O)(=O)NCc2cccn2Cc2cccc(C)c2)c1 | 7%

Rewritten with the structure last: entries from further up.
| VDR inhibitor | mol |
| --- | --- |
| -16% | CCOc1cc(C(=O)OCc2ccc([N+](=O)[O-])cc2)ccc1OCC(=O)N1CCOCC1 |
| ? | CC/C=C\C/C=C\C/C=C\C/C=C\C/C=C\CCCCCC(=O)O |
| -29% | Cc1cccc(N2CCN(C(=O)c3ccc(NC4=NC5CS(=O)(=O)CC5S4)cc3)CC2C)c1 (configuration not stated) |

(listing goes on)
SMILES | VDR inhibitor
Cn1nc2c(c1C(=O)O)CCCC2 | ?
O=C(CCCn1cnc([N+](=O)[O-])n1)Nc1cccc2ccccc12 | -1%
COC(=O)c1cc(NC(=O)Cc2cccs2)cc(C(=O)OC)c1 | -5%
Fc1ccc(N2CCN(c3nc4ccccc4c4nc(-c5cccnc5)nn34)CC2)cc1 | 0%
COCCCNC(=O)c1c(NC(=O)c2cccs2)sc2c1CCCC2 | -8%
Oc1ccc2c(c1-c1c(O)c(Br)cc3c1CCCC3)CCCC2 | 12%
Cc1ccc(-c2ocnc2C(=O)Nc2ccccc2C(=O)N2CCCC2)cc1 | -14%
CC(NC(=O)Cc1cccc(C(F)(F)F)c1)c1ccc(F)cc1 (configuration not stated) | 0%
COC(=O)NC1(C(F)(F)F)NC(=O)N(C2CCCCC2)C1=O (configuration not stated) | 8%
Cc1ccc(NC2CCCN(C(=O)CN3C(=O)c4ccccc4C3=O)C2)cc1C (configuration not stated) | -6%
COC(c1ccccc1)c1nnc(CCC(=O)NCCC(C)C)o1 (configuration not stated) | -19%
CC(=O)N1CCN(c2nc3c(C)ccc(Cl)c3s2)CC1 | -7%
Cn1c(=O)c(/C=C/c2ccccc2)nc2ccccc21 | -21%
Cc1nnc2c3ccccc3nc(Nc3ccc(F)cc3Cl)n12 | 6%
Oc1c(C(c2ccccc2)N2CCc3ccccc3C2)sc2ncnn12 (configuration not stated) | -14%
Nc1n[nH]c(=S)n1/N=C1/C(=O)Nc2ccccc21 | ?
O=c1[nH]cnc2c1cnn2Cc1ccccc1 | 0%
COc1ccc(S(=O)(=O)NC(C)C(=O)Nc2ccc3c(c2)OCO3)cc1OC (configuration not stated) | 3%
CCC(CC)NC(=O)c1cc2c(C)nn(Cc3ccccc3Cl)c2s1 | 31%[activator]
COc1ccc(S(=O)(=O)NCCc2sc(-c3ccccc3)nc2C)cc1OC | 4%
Cc1ccc(OCCSc2nnc(-c3cccs3)o2)cc1 | 2%
CCCSc1ccc2nc(-c3ccccc3)cn2c1 | -16%
CC1CCN(c2ccc([N+](=O)[O-])cc2C(=O)O)CC1 | -16%
O=C(CCn1nnc(-c2cccs2)n1)NC1CCCCC1 | -4%
O=C(CS(=O)c1cccc(Cl)c1)Nc1ccccc1Cl (configuration not stated) | 4%
COc1ccc(NC(=O)N(Cc2ccc3c(c2)OCO3)C2CC(=O)N(c3ccc(OC)cc3)C2=O)cc1 (configuration not stated) | 2%
CCOC(=O)c1ccc(NS(=O)(=O)CC)cc1 | 0%
O=C(O)CSc1c(-c2ccccc2)[nH]c2ccccc12 | 8%
C=CCn1c(=O)c(C(=O)NCc2ccc(Cl)cc2)c(O)c2ccccc21 | -7%
CC(C)(C)NCCCCOc1ccccc1F | 2%
O=C(Nc1ccc(N2CCOCC2)c(Cl)c1)c1ccccc1Cl | -11%
O=C(CN1CCSCC1)N/N=C/c1ccc(F)cc1F | 1%
COc1cc(C(=O)Nc2ccc(NC(=O)C(C)C)nc2)cc(OC)c1OC | -1%
Cc1ccccc1C(=O)c1cccn1CC(=O)NC(C)CCc1ccccc1 (configuration not stated) | -6%
O=C(c1ccc(CS(=O)Cc2ccccc2Cl)o1)N1CCN(c2cccc(Cl)c2)CC1 (configuration not stated) | 0%
CCOC(=O)c1ccc(N/C=C/C(=O)c2ccccc2)cc1 | 0%
O=C1OC(CO)CN1Cc1ccccc1 (configuration not stated) | -2%
COc1ccc(NC(=O)CSCC(=O)N2CCN(c3cccc(C(F)(F)F)c3)CC2)cc1 | -19%
COCCNC(=O)C1CC(=O)N(CCc2ccccc2)C1 (configuration not stated) | 16%
Cc1ccc(-c2noc(CN(C(=O)COc3cc(C)cc(C)c3C)C(C)C)n2)cc1 | -11%
CN(C)S(=O)(=O)N(CC(=O)Nc1ccc(Br)cc1F)c1ccccc1 | -10%
Cc1ccc(N(Cc2cc(=O)[nH]c3ccccc23)C(=O)CCl)c(C)c1 | -17%
CSc1ccc(COC(=O)c2cc([N+](=O)[O-])ccc2N2CCOCC2)cc1 | ?
CCc1cccc(N2C(=O)N(CC(=O)NCc3cccc(OC)c3OC)c3ccccc3S2(=O)=O)c1 | 8%
CC1CC(C)CN(C(=O)CN2C(=O)NC(C)(C)C2=O)C1 (configuration not stated) | 12%
COc1ccc(/C=C/C(=O)Oc2cccc(/C=N/NC(=O)c3cccc(F)c3)c2)cc1 | -3%

Compound activity (PubChem BioAssay)
